PINK1 modulator: modulators of PINK1 expression. PINK1 immunofluorescence, high-content cytometry, 24 h. 410,000 tested, 0.2% active. Potency, µM (doses to about 76.6 µM), without a hit: at the highest dose activation (PINK1 increase), most hits filed as activators. AID 624263; active = well fitted activation curve with a large enough effect; inconclusive = small, poorly fitted or top-dose-only effect; inactive = flat fitted curve, though single readings scatter; cell line not stated here;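 further: potency means the concentration at half of the fitted maximal effect; % of control where 0% means no effect; nearly all actives have a fitted effect of over 65% in size; a mitochondrial uncoupler was the plate control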
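Decision-based qHTS: stable cells, 24 h exposure to five compound concentrations, CCCP as control. Fixed cells stained for PINK1 plus nuclear, mitochondrial and cell markers, cytometer read.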
TRPML1 inh: blocks the human TRPML1 channel | Q9GZU1 | TRPML1-inducible cells, Ca2+ dye fluorescence, FDSS; stronger effect = lower value; inhibition of EC80 agonist-evoked calcium signal | activity change, negative = inhibition, % (test concentration not listed) | 390,000 tested, 0.02% active | AID 624415; in the data active means activity change below about -50%; inconclusive means about -30% to -50%; inactive means above about -30%;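 further: stimulus is agonist 54-4 at its EC80 concentration; on the % scale 0 is the no-effect control and ±100 the full control effect; compound concentration not given in the record; the text of the record puts the active cut at -80%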
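Calcium fluorescence in TRPML1-DL cells induced overnight with Tet: a 110 s read after compound pin addition, then a 110 s antagonist read after challenge with 54-4 at 4 uM final (EC80).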
D2 agonist: activates the human D2 dopamine receptor | P14416 | DiscoveRx PathHunter D2 beta-arrestin, luminescence, 90 min; 100% = 57 uM dopamine signal | activation, % (test concentration not listed) | 360,000 tested, 0.084% active; in the data active = activation above about 40%; inconclusive = about 15% to 40%; inactive = below about 15%; further: compound concentration not given in the record; the text of the record calls up to 30% inactive
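DiscoveRx PathHunter D2 beta-arrestin cells (2,100/well) attached overnight, then compound-stimulated 90 min at 37 C in HBSS/10 mM HEPES/0.1% Tween-20 buffer; beta-galactosidase complementation read by luminescence after 1 h at ambient temperature. Dopamine 57 uM final (EC100) as control.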
Six1-Eya2 inh: Six1/Eya2 interaction inhibition. 360,000 tested, 0.56% active. activity change, % (concentration not given with the values). Q15475+O00167. AlphaScreen GST-Six1/His-Eya2 binding, biochemical; stronger effect = lower value; control for the full effect not named in the record; in the data active = activity change below about -65%; inconclusive = about -30% to -65%; inactive = above about -30%; further: on the % scale 0 is the no-effect control and ±100 the full control effect
Target sequence (O00167 whole entry, looked up): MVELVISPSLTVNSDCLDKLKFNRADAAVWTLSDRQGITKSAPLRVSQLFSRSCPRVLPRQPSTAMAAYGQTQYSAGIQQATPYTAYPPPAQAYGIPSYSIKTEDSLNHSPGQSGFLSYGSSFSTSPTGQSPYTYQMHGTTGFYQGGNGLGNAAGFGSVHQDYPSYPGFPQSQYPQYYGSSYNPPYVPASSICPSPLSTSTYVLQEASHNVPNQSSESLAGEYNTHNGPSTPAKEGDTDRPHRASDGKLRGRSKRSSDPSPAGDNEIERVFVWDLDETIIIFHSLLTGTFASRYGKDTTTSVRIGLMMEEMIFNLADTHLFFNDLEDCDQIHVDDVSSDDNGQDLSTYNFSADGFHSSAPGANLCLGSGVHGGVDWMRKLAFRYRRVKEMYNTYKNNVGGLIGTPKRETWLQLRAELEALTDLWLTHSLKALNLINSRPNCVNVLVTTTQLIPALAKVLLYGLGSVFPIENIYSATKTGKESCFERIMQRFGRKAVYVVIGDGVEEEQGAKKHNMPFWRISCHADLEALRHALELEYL
Target sequence (Q15475 whole entry, looked up): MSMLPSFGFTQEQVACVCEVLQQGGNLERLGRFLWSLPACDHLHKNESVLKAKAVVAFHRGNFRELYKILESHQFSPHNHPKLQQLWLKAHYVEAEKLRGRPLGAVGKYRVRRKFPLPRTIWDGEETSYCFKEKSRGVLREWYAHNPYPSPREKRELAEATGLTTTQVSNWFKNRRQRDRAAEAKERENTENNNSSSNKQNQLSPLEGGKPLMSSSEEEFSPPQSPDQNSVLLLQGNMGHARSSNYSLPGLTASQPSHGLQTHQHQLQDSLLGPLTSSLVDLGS
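Six1/Eya2 binding was read as AlphaScreen signal after compounds were pinned into GST-Six1 plus His-tagged Eya2 (5X stock 250/500 nM) in pH 8.0 Tris/NaCl/TCEP buffer, beads added, then incubated 1 h, 37 C, dark.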
TRPML1 agonist: activates the human TRPML1 channel; TRPML1-expressing cells, Ca2+ dye fluorescence, FDSS; host cell line not named in the record; reference of the full effect not given here; activation, % (concentration not given with the values); 410,000 tested, 0.12% active; AID 624414; in the data active = activation above about 50%; inconclusive = about 30% to 50%; inactive = below about 30%; further: 0% is about no effect; the text of the record puts the active cut at 80%
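Agonist activity was taken from a 110 s kinetic Ca2+ dye read on the FDSS after pinning compounds onto TRPML1-DL cells. The cells were seeded at 1,500/well with Tet inducer, incubated about 16 h, then dye-loaded at room temperature.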
CtBP-E1A blk: CtBP/E1A binding inhibition. AlphaScreen GST-E1A/His-CtBP binding, 1536-well; stronger effect = lower value; control for the full effect not named in the record. activity change, % (concentration not given with the values). 340,000 tested, 0.49% active; in the data active means activity change below about -65%; inconclusive means about -30% to -65%; inactive means above about -30%; further: on the % scale 0 is the no-effect control and ±100 the full control effect
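GST-E1A and His-tagged CtBP (125 nM each as 5X stock) were preincubated with pin-transferred compound for 2 h at 37 °C in the dark, then glutathione donor and nickel acceptor beads were added for 1 h before AlphaScreen reading.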
* = called active by the depositor; ? = inconclusive; . = not tested or not shown; & = joins results of further samples; [ ] = another dose, or the depositor's remark.

SMILES	PINK1 modulator	TRPML1 inh	D2 agonist	Six1-Eya2 inh	TRPML1 agonist	CtBP-E1A blk
COc1ccc2cc(CO)c(Cl)nc2c1	-2.5%	-13	2.5	-2	2.8	-9
CCc1nn(CC(=O)NCCc2ccc(Cl)cc2)c(=O)c2cccn12	-0.4%	2	-7.5	2	1.3	-10
CCN1C(=O)C(CC(=O)Nc2c(C)cccc2C)Nc2cc(S(=O)(=O)N(C)C)ccc21 (stereo unspecified)	0.4%	11	-1.6	-12	-0.6	16
CCCCOCCCNC(=S)Nc1ccc(S(=O)(=O)N2CCOCC2)cc1	-0.3%	-12	-1.8	-7	-0.4	.
CCNC(=S)N/N=C/c1cn(Cc2ccc(F)cc2)c2ccccc12	6.3%	53	0.4	-17	2.7	1
CCCc1[nH][nH]c(=O)c1C(c1cccc(Cl)c1)C(C#N)C#N (stereo unspecified)	10%	13	-2.1	-1	2.9	-13
Cc1noc(C)c1-c1nc(CS(=O)(=O)c2ccccc2)no1	0.1%	5	-0.6	6	0.7	4
CCOC(=O)c1c(C)[nH]c(C(=O)NCC(c2ccco2)N2CCCCC2)c1C (stereo unspecified)	3.9%	22	-2.2	0	3.8	2
C=CCn1c(COc2ccc(F)cc2)nnc1SCC(=O)NC1CCS(=O)(=O)C1 (stereo unspecified)	-8.6%	10	-2.4	10	0.3	-11
Cc1ccc([N+](=O)[O-])cc1N=C(c1cccc(Br)c1)N1CCOCC1	0.7%	-16	-2.3	-17	16	-14
COc1ccccc1NC(=O)NCCN1CCN(c2cccc(Cl)c2)CC1	6.4%&0.7%	1	-3.1	8	-0.8	4
CCN1CCN(C(=O)c2ccc3c(c2)N(Cc2cc(C)ccc2C)C(=O)c2ccccc2S3(=O)=O)CC1	0.2%	-19	.	.	0.6	.
CCOC(=O)c1cccc(NC(=O)Nc2c(C)n(C)n(-c3ccccc3)c2=O)c1	0.4%	21	.	.	0.2	.
Cc1ccc(CCN2CC(C(=O)NCCN3CCCCCC3)CC2=O)cc1 (stereo unspecified)	-0.9%	0	1.7	0	-0.1	4
CC1=NC(C(F)(F)F)(C(F)(F)F)C(C#N)=C(C)N1	6.3%[38.3 µM]	-5	3.2	3	0.7	3
Cc1c(NC(=O)c2ccc(F)cc2)c(=O)n(-c2ccccc2)n1C	-0.9%	-4	-30	7	-0.3	1
COC(=O)c1[nH]c2cc(OC)ccc2c1NC(=O)CCN1CCN(c2cccc(C)c2C)CC1	1.1%	-1	-1.5	-21	-0.9	-28
CCOc1ccc(C(=O)NCc2ccc3c(c2)OCO3)cc1OCC	3.1%	15	-6.3	0	1.3	-8
CC1CN(Cc2nnc(-c3ccccc3)o2)CC(C)O1 (stereo unspecified)	3.8%	1	11	4	-0.6	-2
CS(=O)(=O)Cc1cccc(C(=O)NC2CCSc3ccccc32)c1 (stereo unspecified)	0.7%	-4	0.9	9	25	7
CCN(CC)S(=O)(=O)c1cccc(C(=O)OCC(=O)Nc2ccc3c(c2)c2ccccc2n3CC)c1	-1.5%	-13	3.6	2	-0.8	-5
CCNC(=O)N1CCN(CCCC(c2ccc(F)cc2)c2ccc(F)cc2)CC1	-0.1%	-8	4.1	0	0.6	0
COc1ccc(OC)c2sc(NC(=O)c3ccc(Cl)s3)nc12	1.5%	9	-5.3	4	-0.8	-11
COCC(=O)N1CCC(Oc2ccc(C(=O)N(C)C3CCCCC3)cc2)CC1	0.8%	-4	-3.1	-9	1.7	-14
COC(=O)c1c(-c2cccc(C)c2)csc1N	3.5%	-14	0.9	-10	0.4	-4

Full records from above. Order of screens: PINK1 modulator | TRPML1 inh | D2 agonist | Six1-Eya2 inh | TRPML1 agonist | CtBP-E1A blk
CCOC(=O)c1cccc(NC(=O)Nc2c(C)n(C)n(-c3ccccc3)c2=O)c1 in the list: 0.4% | 21 | . | . | 0.2 | .
CCOC(=O)c1c(C)[nH]c(C(=O)NCC(c2ccco2)N2CCCCC2)c1C (stereo unspecified) in the list: 3.9% | 22 | -2.2 | 0 | 3.8 | 2
COc1ccc(OC)c2sc(NC(=O)c3ccc(Cl)s3)nc12 in the list: 1.5% | 9 | -5.3 | 4 | -0.8 | -11
CCCc1[nH][nH]c(=O)c1C(c1cccc(Cl)c1)C(C#N)C#N (stereo unspecified) in the list: 10% | 13 | -2.1 | -1 | 2.9 | -13
Cc1ccc([N+](=O)[O-])cc1N=C(c1cccc(Br)c1)N1CCOCC1 in the list: 0.7% | -16 | -2.3 | -17 | 16 | -14

Next part.
SMILES	PINK1 modulator	TRPML1 inh	D2 agonist	Six1-Eya2 inh	TRPML1 agonist	CtBP-E1A blk
CCC(=O)Nc1ccc(C)cc1-c1nc2ccccc2n(CC(=O)c2ccc(C)cc2)c1=O	1.1%	2	.	.	-0.1	.
CCCCc1c(C)nc2ccc(Br)cc2c1SC(N)N	-0.3%	1	-3.7	2	1.0	.
COc1ccc2c(CNC3CCC(C)CC3)c(C(=O)O)n(Cc3ccc(F)cc3)c2c1 (stereo unspecified)	-0.4%	-10	.	.	-0.6	.
CCN1C(=N)N(c2ccccc2)C(=O)C(CC)(CC)C1=O	11%	-2	0.7	12	0.7	6
Cc1ccc(O)c(-c2cc(-c3ccc(F)cc3)no2)c1	1.5%	-9	1.4	7	-0.9	.
COc1ccc(C2CC(=O)c3cnn(-c4nc(C)cc(C)n4)c3C2)cc1 (stereo unspecified)	8.2%	21	-6.8	0	-0.2	-1
OCCN1CCN(CC(O)COc2ccc(Cl)cc2)CC1 (stereo unspecified)	-0.7%	0	1.3	9	-0.7	4
Clc1ccc(Nc2cc(-c3ccccc3)nc3ncnn23)cc1	3.0%	-4	-10	3	0.9	7
CCCCN(C(=O)c1ccc(NC2CC2)c([N+](=O)[O-])c1)c1c(N)n(CC(C)C)c(=O)[nH]c1=O	2.8%	7	3.0	0	0.3	-23
N#Cc1c(C(F)(F)F)cc(-c2ccccc2)n(N)c1=O	0.6%	-20	0.4	4	0.2	6
c1ccc(N2CCN(c3nnnn3-c3ccccc3)CC2)cc1	1.0%	11	-3.3	4	0.1	2
Cc1ccc2c(c1)N(C(=O)CCC(=O)NC1CCC(C)CC1)CCO2 (stereo unspecified)	3.2%	-5	-3.0	-6	0.2	-3
CC1(C)CC(=O)C(C(=O)/C=C/c2ccco2)C(=O)C1	2.0%	0	1.4	1	0.3	.
CCOC(=O)Cn1c(=O)n(CC2CCCO2)c2nc(-c3cc(OC)ccc3OC)nc(C(N)=O)c21 (stereo unspecified)	1.2%	-10	.	.	1.9	.
COc1ccc2c(c1)c(C(=O)N/N=C/c1cn(C)c3ccccc13)c(C)n2C	2.4%	-3	1.6	-17	1.2	-2
Cc1ccnc2nc(C(=O)NC3=NCCS3)nn12	-1.3%	4	0.2	20	1.0	23
CCc1nc(SCC(=O)NCc2ccc(F)cc2)c2c(=O)n(C)c(=O)n(C)c2n1	-0.6%	15	-3.9	7	-0.1	3
CCOc1ccc(S(=O)(=O)N(CC)CC(=O)NCc2ccncc2)cc1	-1.8%	17	-0.5	5	0.5	-9
c1ccc(-n2nnnc2Cc2nnnn2-c2ccccc2)cc1	-0.7%	-2	-4.4	6	0.6	0
COC1Cc2ccccc2N(C(=O)N2CCN(CCO)CC2)c2ccccc21 (stereo unspecified)	-1.7%	-11	-2.7	2	-0.2	2
CCCn1c(=N)c(C(=O)NCc2ccccc2)cc2c(=O)n3cccc(C)c3nc21	-0.3%	-1	.	.	-0.8	.
COc1cccc(N(C(=O)c2ccco2)C(C(=O)NC2CCCC2)c2ccc(N3CCOCC3)cc2)c1 (stereo unspecified)	-1.1%	9	-2.7	5	0.9	-2
CCN(CC)C(=O)Cn1c(=O)n(-c2ccc(C)c(C)c2)c(=O)c2c3c(sc21)CCCCC3	1.1%	-29	.	.	-0.1	.
COc1ccc2c(c1)CC/C(=C/c1ccncc1)C2=O	-1.1%	-11	1.3	1	0.1	-16
COc1ccc(NC(=O)CC2SC(N)=NC2=O)c([N+](=O)[O-])c1 (stereo unspecified)	-0.9%	24	3.4	13	-0.8	3

(listing goes on)
SMILES	PINK1 modulator	TRPML1 inh	D2 agonist	Six1-Eya2 inh	TRPML1 agonist	CtBP-E1A blk
O=C(COC(=O)c1ccc(Br)o1)NCC(=O)Nc1ccc(F)cc1	1.6%	-1	0.2	4	-0.2	2
COc1ccc(CN2C(=O)c3cccnc3C2Nc2cc(Cl)ccc2OC)cc1 (stereo unspecified)	-1.9%[38.3 µM]	8	-3.0	-8	0.7	-6
COc1cccc(NC(=O)c2cccc(OC)c2OC)c1	-0.7%	11	0.0	2	-0.9	2
COc1ccc(-c2csc(C(C)(O)c3ccccc3)n2)cn1 (stereo unspecified)	4.0%	.	-1.9	-8	-0.7	1
C/C(=N\NC(=O)c1nnn(-c2nonc2N)c1-c1ccc2c(c1)OCO2)c1ccc(F)cc1	5.4%	-11	-3.2	0	0.0	3
CC(=O)c1cccc(-c2ccnc3c2CC(C(=O)Nc2ccc(C(C)C)cc2)O3)c1 (stereo unspecified)	-0.3%	.	5.9	-7	-0.2	-3
Cc1noc(/C=C/N(C)C)c1S(=O)(=O)N1CCCC(C(=O)Nc2cccc(F)c2)C1 (stereo unspecified)	0.2%	2	.	.	-0.2	.
COc1cc(/C=C(\C#N)C(=O)Nc2ccc3c(c2)OCCO3)ccc1O	5.5%	7	-8.2	-4	3.4	1
CCCCC(=O)NC1CC(=O)N(c2ccc3c(c2)OCCO3)C1 (stereo unspecified)	0.2%	-9	.	.	-0.3	.
NC(=O)c1cc([N+](=O)[O-])ccc1NCc1cccnc1	-0.2%	7	0.7	10	0.2	.
COc1ccc(Oc2nc(Oc3ccc(OC)cc3)nc(Oc3ccc(OC)cc3)n2)cc1	1.9%[38.3 µM]	-2	-2.9	4	0.2	2
CCN(Cc1ccccc1)C(=O)COC(=O)c1c(C)nsc1NC	5.2%	9	15	-1	2.6	2
CC(C)Cn1c(=O)c2ccccc2n2c(CCC(=O)NCC3CCCO3)nnc12 (stereo unspecified)	2.6%	-2	-1.6	4	-0.7	10
CCOC(=O)N1CCN(c2c(N3CCN(c4cccc(C)c4C)CC3)c(=O)c2=O)CC1	2.3%	-2	-5.9	-2	-0.5	3
CC1=CC(C)(C)N2C(=O)C3(C(C#N)=C(N)Oc4cc(C)oc(=O)c43)c3cccc1c32 (stereo unspecified)	14%	6	-4.1	-14	1.0	3
c1ccc2sc(SN3CCOCC3)nc2c1	-0.2%	-2	1.3	7	0.0	-4
CC(C)c1ccc(C2CC(=O)N3CN(C4CCCCC4)CSC3=C2C#N)cc1 (stereo unspecified)	0.2%	-18	.	.	-0.8	.
O=C(O)CC1(CC(=O)NCc2csc(-c3cccs3)n2)CCCCC1	-0.4%	7	-3.3	0	-0.3	.
Cc1cc(C)n(-c2nnc(C)c(=O)[nH]2)n1	9.2%[38.3 µM]	-1	-0.5	?	-0.3	?
C[C@H](CO)N1C[C@H](C)[C@@H](CN(C)S(=O)(=O)c2ccccc2)Oc2c(cccc2N(C)C)C1=O	-0.4%	-12	-3.8	2	0.8	0

Screens deposited in PubChem by National Center for Advancing Translational Sciences (NCATS).
